Screens from PubChem.
TRPV1 PAM = human TRPV1 potentiation; Q8NER1; TRPV1-expressing cells, Fluo-8 calcium influx, capsaicin EC20 potentiation; host cell line not named in the record; control for the full effect not named in the record; potentiation, % at 8.33 µM; 320,000 tested, 0.02% active; active means potentiation above 80%; inconclusive means 30% to 80%; inactive means below 30%; further: 0% is about no effect
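Fluo-8 calcium influx in TRPV1-expressing cells, kinetic read (ex 480/em 520 nm). Compound added and read 3 min for agonist activity, followed by capsaicin at EC20 final and 2 min further read for enhancement.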
TRPML1 inh = inhibitors of human TRPML1 channel; Q9GZU1; TRPML1-inducible cells, Ca2+ dye fluorescence, FDSS; stronger effect = lower value; inhibition of EC80 agonist-evoked calcium signal; activity change, negative = inhibition, % (test concentration not listed); 390,000 tested, 0.02% active; AID 624415; in the data active means activity change below about -50%; inconclusive means about -30% to -50%; inactive means above about -30%;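 further: stimulus is agonist 54-4 at its EC80 concentration; on the % scale 0 is the no-effect control and ±100 the full control effect; compound concentration not given in the record; the text of the record puts the active cut at -80%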
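Tet-induced TRPML1-DL cells loaded with Ca8 no-wash calcium dye were read kinetically on FDSS. Compound addition was followed by EC80 agonist 54-4 (4 uM final); inhibition was read over 110 s.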
TRPML1 ag = activates the human TRPML1 channel | activation, % (no concentration beside the values) | Q9GZU1 | TRPML1-expressing cells, Ca2+ dye fluorescence, FDSS; host cell line not named in the record; reference of the full effect not given here | 410,000 tested, 0.12% active; in the data active = activation above about 50%; inconclusive = about 30% to 50%; inactive = below about 30%; further: 0% is about no effect; the text of the record puts the active cut at 80%
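Tetracycline-induced TRPML1-DL cells are seeded and incubated overnight before loading with a no-wash Ca2+ dye and quencher. Agonist activity is taken from the 110 s fluorescence read following compound pin-transfer on an FDSS, before EC80 54-4 challenge.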
CtBP-E1A blk = CtBP/E1A binding inhibition. 340,000 tested, 0.49% active. activity change, % (no concentration beside the values). AID 651724. AlphaScreen GST-E1A/His-CtBP binding, 1536-well; stronger effect = lower value; control for the full effect not named in the record; in the data active means activity change below about -65%; inconclusive means about -30% to -65%; inactive means above about -30%; further: on the % scale 0 is the no-effect control and ±100 the full control effect; compound concentration not given in the record
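Protein mix (5X: 125 nM each GST-E1A, His-CtBP) was incubated with pinned compound 2 h at 37 deg C in dark, in 50 mM Tris pH 8.0 buffer with 300 mM NaCl. Glutathione donor and nickel acceptor beads followed; AlphaScreen signal read after 1 h.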
Six1-Eya2 inh = blocks human Six1 binding to Eya2. activity change, % (concentration not given with the values). AlphaScreen GST-Six1/His-Eya2 binding, biochemical; stronger effect = lower value; control for the full effect not named in the record. 360,000 tested, 0.56% active. AID 651725; in the data active = activity change below about -65%; inconclusive = about -30% to -65%; inactive = above about -30%; further: on the % scale 0 is the no-effect control and ±100 the full control effect
Target sequence (O00167 whole entry, looked up): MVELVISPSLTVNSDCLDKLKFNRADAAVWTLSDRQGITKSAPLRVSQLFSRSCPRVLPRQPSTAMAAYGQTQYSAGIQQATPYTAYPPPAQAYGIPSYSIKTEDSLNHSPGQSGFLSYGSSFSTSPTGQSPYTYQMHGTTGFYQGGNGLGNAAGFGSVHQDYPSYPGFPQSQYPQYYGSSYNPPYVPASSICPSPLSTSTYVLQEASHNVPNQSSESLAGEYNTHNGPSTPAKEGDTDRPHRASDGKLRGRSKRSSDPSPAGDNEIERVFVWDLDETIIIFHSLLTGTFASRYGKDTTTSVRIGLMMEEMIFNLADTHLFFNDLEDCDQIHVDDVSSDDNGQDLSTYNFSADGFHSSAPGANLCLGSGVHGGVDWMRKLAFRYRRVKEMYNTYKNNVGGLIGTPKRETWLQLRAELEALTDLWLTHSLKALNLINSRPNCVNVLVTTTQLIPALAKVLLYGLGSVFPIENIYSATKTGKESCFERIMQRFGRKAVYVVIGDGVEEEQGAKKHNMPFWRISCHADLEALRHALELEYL
Target sequence (Q15475 whole entry, looked up): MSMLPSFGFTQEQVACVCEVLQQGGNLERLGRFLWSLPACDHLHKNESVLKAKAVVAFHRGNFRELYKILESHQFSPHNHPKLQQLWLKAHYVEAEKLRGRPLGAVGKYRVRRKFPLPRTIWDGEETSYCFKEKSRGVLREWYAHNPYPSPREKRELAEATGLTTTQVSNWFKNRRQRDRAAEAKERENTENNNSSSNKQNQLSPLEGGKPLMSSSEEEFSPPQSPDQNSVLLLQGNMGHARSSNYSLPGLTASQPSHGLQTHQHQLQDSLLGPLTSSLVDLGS
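AlphaScreen with GST-Six1 and His-Eya2 (5X mix: 250 nM and 500 nM), glutathione donor and nickel acceptor beads; buffer 50 mM Tris pH 8.0, 300 mM NaCl, 1 mM TCEP; 1 h at 37 C in the dark.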
D2 PAM = human D2 receptor positive allosteric modulation. potentiation, % (concentration not given with the values). P14416. DiscoveRx D2 beta-arrestin cells, luminescence, 90 min; 100% = 57 uM dopamine signal. AID 624464. 360,000 tested, 0.23% active; active = potentiation of 50% or more; inconclusive = 30% to 50%; inactive = 30% or less;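 further: compound concentration not given in the record; tested on top of an EC20 dose of dopamine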
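PathHunter beta-arrestin assay in DiscoveRx D2 cells. Compounds were added with an EC20 of dopamine (50 nM final) for 90 min at 37 deg C. Luminescence was read 1 h after detection reagent, with 57 uM dopamine as the EC100 control.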
Numbers without * were called inactive; u = inconclusive; x = no result given; & = joins results of further samples.

SMILES	TRPV1 PAM	TRPML1 inh	TRPML1 ag	CtBP-E1A blk	Six1-Eya2 inh	D2 PAM
CC1CCCC(C)N1C(=O)c1ccc2c(c1)S(=O)(=O)c1ccccc1C2=O (configuration not stated)	-11.2	-14.3	-0.6	-6.3	0.9	0.0
CCOc1ccc(N=CC2=C(O)CC(C)(C)CC2=O)cc1	-16.4	17.1	0.1	2.1	5.2	-18.1
Clc1ccc(-c2nnc(N3CCCC3)nn2)cc1	-1.9	-0.7	-1.0	-19.4	-26.8	2.8
Cc1ccc(S(=O)(=O)N2CCCC2C(=O)O)cc1 (configuration not stated)	2.9	-10.2	0.7	6.6	4.1	7.1
CCOC(=O)C1=C(O)/C(=C/c2cc(OC)c(OC)c(OC)c2)SC1=Nc1ccc(OC)cc1	-7.9	-9.1	1.9	15.6	-0.9	-8.7
COc1ccc(OC)c(C(=O)c2ccc(C(=O)Nc3ccc4ccccc4c3)cc2)c1	6.4	12.0	1.5	6.4	1.5	7.9
CCCn1nnc(NC(=O)COc2ccc(Cl)cc2)n1	2.4	-7.4	4.8	2.7	-1.3	25.5
CCc1nc2ccc(C(=O)N3CCN(S(=O)(=O)CC)CC3)cn2c1N(C=O)Cc1ccc(OC)cc1	x	x	-0.3	9.7	5.8	-3.9
CCOC(=O)COc1ccc(S(=O)(=O)N2CCN(c3ccccc3)CC2)cc1	13.4	0.4	0.7	-22.1	-6.3	-5.4
CCOc1cc(S(=O)(=O)Nc2ccncc2)ccc1F	10.3	0.9	0.6	-1.2	1.0	-2.4
CC(C)=CCC[C@H](C)C[C@@H]1CC2=C(C(=O)OC(C)(C)O2)[C@@H](c2ccc(F)cc2)O1	x	x	0.4	7.5	9.0	x
O=C(c1cccc(-n2cnnn2)c1)N1CC=C(c2ccccc2)CC1	8.7	-7.6	1.7	u	-17.4	1.1
Cc1ccc(NC(=O)N2CCCc3ccccc32)cc1	3.4	16.0	1.7	-0.5	6.6	-8.3
CC(C)=CCc1c(O)cc(O)c2c1OC(c1ccc(O)cc1)CC2=O (configuration not stated)	x	x	x	0.4	-7.6	-5.5
CCOC(=O)C1=C(O)/C(=C/c2ccc(OCC(=O)Nc3ccc(C)cc3)cc2)N=C1C	-15.5	-7.5	-0.5	-1.5	1.3	1.5
Fc1cnc(N/N=C/c2ccc(-c3ccc(Br)cc3)o2)nc1N1CCOCC1	13.8	0.8	0.2	8.7	3.4	1.3
CCN1C(=O)[C@H]2[C@@H](c3ccc(-c4ccc5c(c4)OCO5)c(OC)c3)N[C@@](CC(C)C)(C(=O)OC)[C@H]2C1=O	5.7	-12.6	-0.2	-23.4	-14.3	-10.3
O=C(Nc1cnc2ccccn2c1=O)c1ccc(F)cc1	3.8	11.6	0.3	-1.8	1.8	-9.9
COC(=O)c1ccccc1NC(=O)c1cccc(NC(=O)CSCc2ccccc2)c1C	-9.7	-5.8	2.9	-5.5	-0.8	3.1
CCN(c1ccccc1)S(=O)(=O)c1ccc(Cl)c(NC(=O)COC(=O)c2ccc[nH]c2=O)c1	9.8	-16.6	1.0	-3.9	-2.1	-7.7
Cn1nc([N+](=O)[O-])nc1Sc1nnnn1-c1ccc(C(=O)O)cc1	-9.2	-21.6	-0.8	-22.9	11.1	-4.1
O=C(O)C1CCCN1S(=O)(=O)c1ccc2c(c1)CCC2 (configuration not stated)	2.4	1.0	0.8	-4.7	-11.7	7.2
CCc1ccccc1NC(=O)CNCC(=O)Nc1ccccc1CC	10.6	22.2	-0.5	6.2	3.7	-1.9
O=C(CNC(=O)c1ccccc1)N/N=C/c1ccc([N+](=O)[O-])o1	-9.2	14.7	0.4	x	-10.6	-3.4
COC(=O)c1ccccc1NC(=O)c1nc2nc(C)cc(C)n2n1	4.2	u	0.6	-2.0	9.8	-1.8
COc1ccc(N(CC(=O)N2CCN(c3ccccc3F)CC2)S(=O)(=O)c2c(C)noc2C)cc1	-1.0	27.7&-9.6	-1.0&-0.6	2.7	1.6	3.6
Cc1[nH]n(-c2ccc([N+](=O)[O-])cc2)c(=O)c1C=NCCN1CCN(C(=O)C(C)C)CC1	-19.6	24.8	0.6	x	-2.3	-6.6
CCSc1nnc(-c2cc3c(s2)-c2ccccc2CC3)o1	-8.2	3.8	1.3	18.9	12.2	-14.1
Cc1ccc(NC(=O)Cc2nnc(SCC(=O)Nc3ccccc3)n2C)cc1	22.8	4.6	-0.9	-0.1	16.4	-1.4
O=C(Nc1ccccc1)c1ccccc1Oc1ccc(C(F)(F)F)cc1[N+](=O)[O-]	-5.3	-4.4	2.4	-7.5	-5.7	-10.1
O=C(O)CSc1nnc(Cc2ccccc2)n1Cc1ccccc1	3.5	52.7	-0.4	8.3	-1.2	-5.7
COc1ccc(CC(=O)N/N=C\c2cc(Br)c(O)c(Br)c2)cc1	6.5	-7.9	0.7	3.6	-9.7	-2.0
CCOC(Cn1c(SCc2cc(C(C)=O)ccc2OC)nc2ccccc2c1=O)OCC	-7.6	-5.0	0.8	-7.2	6.4	10.5
Cc1nnc(NC(=O)c2c(-c3ccccc3Cl)noc2C)s1	2.6	15.2	1.0	2.6	10.0	-0.3
Cc1occc1C(=O)NNC(=S)NCc1ccc(Cl)cc1	-2.2	-25.7	0.7	x	4.0	-4.1
FC(F)(F)c1cccc(-c2ccn3ncnc3n2)c1	-26.6	1.2	-0.3	16.9	1.9	-4.2
O=c1[nH]c(/C=C/c2ccccc2)c([N+](=O)[O-])c(=O)[nH]1	8.8	3.7	-0.4	1.3	u	-5.9
O=C(NC(Cc1ccccc1)C(=O)O)/C(=C/c1ccco1)NC(=O)c1cccc([N+](=O)[O-])c1 (configuration not stated)	2.2	10.2	0.3	x	-1.4	-6.5
C[N+](C)(C)CC(=O)N1CCN(c2ccc3ccccc3n2)CC1	5.1	21.0	0.8	5.5	6.9	-3.5
CCCNc1c(NS(=O)(=O)c2cccc(C#N)c2)c(=O)oc2ccccc12	-1.3	-12.7	0.4	3.8	-1.5	-5.0
N#CC1=C(N)Oc2cc(N)ccc2C1c1ccccc1F (configuration not stated)	-22.5	1.9	-1.0	-5.2	1.8	0.7
CC(C)(C)NC(=O)C(c1ccccn1)N(C(=O)c1csnn1)C1CCCCC1 (configuration not stated)	-3.6	-9.2	0.3	-16.1	3.2	-5.9
COCCNC(=O)C1CCCN(Cc2cccc(C(F)(F)F)c2)CC1 (configuration not stated)	x	-1.8	-0.1	4.4	2.9	-12.4
CCS(=O)(=O)Nc1ccc(C(=O)c2ccccc2)cc1	-11.1	31.1	1.4	-0.4	-11.6	-4.8
O=C(NCCC1CCCCN1S(=O)(=O)c1ccc(F)cc1)C(=O)Nc1ccccc1 (configuration not stated)	3.7	59.7	2.4	-3.3	2.6	-8.3
O=C(CN1CCN(Cc2ccccc2)CC1)NCC1COc2ccccc2O1 (configuration not stated)	-1.8	-6.6	-0.4	-1.2	-0.9	-4.2
Cc1ccsc1C(=O)OCC(=O)Nc1cccc(S(=O)(=O)NC2=NCCCCC2)c1	0.4	-6.9	0.9	x	-7.7	-2.7
Cc1nc(C(F)(F)F)c(C(=O)NC(=O)Nc2ccccc2)s1	u	-3.4	0.0	-1.6	2.2	-1.7
COc1ccc(S(=O)(=O)N(CC(=O)NC2CCCCC2)c2ccc(F)cc2)cc1	2.7	11.0	-0.7	-3.9	0.0	-6.5
Cc1noc(C)c1C(=O)N1CCC1(C)C(=O)NS(=O)(=O)Cc1cccc(Cl)c1 (configuration not stated)	x	97.6	2.1	-0.2	-0.7	-5.0

(listing goes on)
SMILES	TRPV1 PAM	TRPML1 inh	TRPML1 ag	CtBP-E1A blk	Six1-Eya2 inh	D2 PAM
O=C1c2ccccc2NC(c2ccc(Cl)cc2Cl)N1O (configuration not stated)	-4.3	-2.7	-0.9	-2.9	0.8	9.1
CCOc1ccc(OC(=O)C(CCS(C)(=O)=O)N2C(=O)c3ccccc3C2=O)cc1 (configuration not stated)	-6.1	-9.9	0.1	2.3	-2.2	3.6
C/C(=N\N=C\c1ccc(N(C)C)cc1)c1cccc([N+](=O)[O-])c1	4.3	-7.1	0.7	-13.1	-12.5	-10.3
O=C(CCCSc1nc2ccccc2[nH]1)Nc1nnc(-c2ccccc2)o1	-1.4	7.8	0.6	u	u	-7.1
Cc1ccc2oc(=O)n(CCC(=O)Nc3ccc(N4CCOCC4)cc3)c2c1	5.9	-9.3	-0.5	6.0	-5.4	3.6
CC(C)c1cccc(C(C)C)c1NC(=O)c1ccccc1	15.5	-11.1	-0.1	5.6	-1.1	-0.2
COc1ccc(C(=O)Nc2cc(-c3ccc(C)cc3)no2)cc1	5.7	3.7	0.8	x	11.3	-8.0
O=[N+]([O-])c1cc2ncccc2c2ncccc12	x	-1.5	-0.3	-23.8	-21.3	2.1
O=C(O)C1CC1(c1ccccc1)c1ccccc1 (configuration not stated)	6.3	-9.5	-0.3	x	5.4	-12.8
CCCCc1[nH]nc2c1C1(C(=O)N(CC)c3ccccc31)C(C#N)=C(N)O2 (configuration not stated)	-1.3	-1.5	0.2	-0.5	4.0	11.7
CCNCc1cc(Cl)cc(OC)c1OC(C)C	2.7	4.6	0.3	8.1	0.8	-19.2
Nn1c(SCC(=O)Nc2nccs2)nnc1-c1ccccn1	2.6	2.2	-0.5	u	u	-2.3

Complete entries as entered above.
Record of CCCCc1[nH]nc2c1C1(C(=O)N(CC)c3ccccc31)C(C#N)=C(N)O2 (configuration not stated) = TRPV1 PAM = -1.3; TRPML1 inh = -1.5; TRPML1 ag = 0.2; CtBP-E1A blk = -0.5; Six1-Eya2 inh = 4.0; D2 PAM = 11.7
Record of C/C(=N\N=C\c1ccc(N(C)C)cc1)c1cccc([N+](=O)[O-])c1 = TRPV1 PAM = 4.3; TRPML1 inh = -7.1; TRPML1 ag = 0.7; CtBP-E1A blk = -13.1; Six1-Eya2 inh = -12.5; D2 PAM = -10.3

Of the compounds above, eight have a Cl atom:
SMILES	TRPV1 PAM	TRPML1 inh	TRPML1 ag	CtBP-E1A blk	Six1-Eya2 inh	D2 PAM
Clc1ccc(-c2nnc(N3CCCC3)nn2)cc1	-1.9	-0.7	-1.0	-19.4	-26.8	2.8
CCCn1nnc(NC(=O)COc2ccc(Cl)cc2)n1	2.4	-7.4	4.8	2.7	-1.3	25.5
CCN(c1ccccc1)S(=O)(=O)c1ccc(Cl)c(NC(=O)COC(=O)c2ccc[nH]c2=O)c1	9.8	-16.6	1.0	-3.9	-2.1	-7.7
Cc1nnc(NC(=O)c2c(-c3ccccc3Cl)noc2C)s1	2.6	15.2	1.0	2.6	10.0	-0.3
Cc1occc1C(=O)NNC(=S)NCc1ccc(Cl)cc1	-2.2	-25.7	0.7	x	4.0	-4.1
Cc1noc(C)c1C(=O)N1CCC1(C)C(=O)NS(=O)(=O)Cc1cccc(Cl)c1 (configuration not stated)	x	97.6	2.1	-0.2	-0.7	-5.0
O=C1c2ccccc2NC(c2ccc(Cl)cc2Cl)N1O (configuration not stated)	-4.3	-2.7	-0.9	-2.9	0.8	9.1
CCNCc1cc(Cl)cc(OC)c1OC(C)C	2.7	4.6	0.3	8.1	0.8	-19.2
